# Assay outcomes: PubChem, National Center for Advancing Translational Sciences (NCATS)
# HPGD inh: blocks human HPGD enzyme activity. hit rate 4.3% among 150,000. P15428. Potency, µM, without a hit: top-dose activity change, negative = inhibition, most hits filed as inhibitors. purified HPGD, NADH fluorescence kinetic, PGE2 substrate. AID 894; active = well fitted inhibition curve with a large enough effect (not every such curve was filed as active); inconclusive = small, poorly fitted or top-dose-only effect, or another doubt; inactive = no such curve, though single readings can be large or run the other way;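 note: top concentration of the series not given in the record; plate controls included wells without enzyme; inactives centre near -10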
# Target sequence (P15428 whole entry, looked up): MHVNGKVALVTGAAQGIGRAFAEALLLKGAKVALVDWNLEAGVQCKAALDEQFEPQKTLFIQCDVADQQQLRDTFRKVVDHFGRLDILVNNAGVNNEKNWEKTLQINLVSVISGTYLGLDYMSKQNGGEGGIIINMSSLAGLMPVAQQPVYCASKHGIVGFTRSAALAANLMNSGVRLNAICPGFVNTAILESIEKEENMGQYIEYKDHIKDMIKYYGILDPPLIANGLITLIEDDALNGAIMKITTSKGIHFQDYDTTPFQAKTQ
#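 20 nM HPGD preincubated 15 min at room temperature with compound in 50 mM Tris-HCl pH 8, 0.01% Tween 20. Started with 1 mM NAD+ and 30 uM prostaglandin E2; NADH fluorescence (360/450 nm) read 5 times over 30-s intervals, last minus first.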
# The depositor's hits bear a star; ? = inconclusive; & = joins results of further samples. % is set by controls: 0 for no effect and ±100 for the full control effect; potency is the fitted concentration of half-maximal effect. These rows are one share of the data (hit frequency here may not be typical).
cpd	molecule	HPGD inh
1	COc1ccc2c(c1O)-c1cccc3c1C(C2)N(C)CC3 (stereo not given)	?
2	C=CCc1c(C)nc(C)nc1N/N=C/c1ccc(N(C)C)cc1	?
3	Cn1c(O)c(/C=N/N2CCCCC2)c(=O)[nH]c1=O	-5%
4	Cc1cccc(-n2c(-c3ccc([N+](=O)[O-])cc3)nc3ccccc3c2=O)c1	-9%
5	Cc1cc(C)c(S(=O)(=O)NCC2CCC(C(=O)N3CCC4(CC3)OCCO4)CC2)c(C)c1 (stereo not given)	-7%
6	CNP1(NC)=Nc2nn(-c3ccccc3)c(N)c2C(c2ccccc2)=N1	-13%
7	COC(=O)c1cc(COc2cc(C)cc3oc(=O)c4c(c23)CCC4)c(C)o1	?
8	CCCC(=O)Cl	-2%
9	CCOC(=O)C1SC2(C(F)(F)C(F)F)CC1(O)c1c(c(OC)c3occc3c1OC)O2 (stereo not given)	-4%
10	CC(C)(C)OO	-7%&-8%
11	O=C(N/N=C1/CN2CCC1CC2)c1cc2ccccc2cc1O	-10%
12	COc1ccccc1-c1[se]c2ccccc2c1I	?
13	O=C(Cc1ccccc1)Oc1ccc(N2C(=O)C3CCCCC3C2=O)cc1 (stereo not given)	-11%
14	CC(C(=O)Nc1ccc(Br)cc1C(=O)c1ccccc1)N1CCCCC1 (stereo not given)	-3%
15	COc1ccc(NC(=O)N2CC3(CCN(C(=O)Oc4ccccc4)CC3)C2)cc1	?
16	CN1CC[C@@]2(C)c3cc(O)ccc3N(C)[C@@H]12	11%
17	COC(C)(C)C	-3%
18	Cc1ccc(/C=C2/C(=O)NC(=O)N(CC3CCCO3)C2=O)s1 (stereo not given)	14µM*
19	N#CCBr	-9%
20	NC(=NCCCC(N)C(=O)O)N[N+](=O)[O-] (stereo not given)	-4%
21	CN1C[C@@H](CO)C=C2c3cccc4[nH]cc(c34)CC21 (stereo not given in full)	?
22	NCCCP(=O)(O)CC1CCCCC1	-3%
23	Cc1c(N=Cc2c(O)n(Cc3ccc(F)cc3)c(=O)[nH]c2=O)c(=O)n(-c2ccccc2)n1C	-20%
24	O=C1CN=C(c2ccccc2)c2cc(Br)ccc2N1Cc1cc(=O)n2ccccc2n1	-14%
25	Cn1c(=O)cc(OCC(=O)N2CCC3(CC2)OCCO3)c2ccccc21	-4%
26	CCOC(=O)c1c(N)n(Cc2ccc(OC)cc2)c2nc3ccccc3nc12	?
27	CN1CCN(c2ccc(C(N)=O)cc2[N+](=O)[O-])CC1	0%
28	Clc1cccc2ccccc12	-3%
29	CNC(Cc1c[nH]c2ccccc12)C(=O)O (stereo not given)	0%
30	O=C(O)CNC(=O)c1ccc([As](=O)(O)O)cc1	-5%
31	Cc1ccc(CNCCc2ccccc2F)cc1	-6%
32	c1ccc(OP(Oc2ccccc2)Oc2ccccc2)cc1	0%
33	C=CC(=O)OCC	-4%
34	CN1CCN(c2ccc([N+](=O)[O-])c(N/N=C3\CN4CCC3CC4)c2)CC1	-8%
35	CCC(C)n1c(O)c(/C=N/N2CCOCC2)c(=O)[nH]c1=S (stereo not given)	-1%
36	CC(C)N1C(=O)/C(=C/C=C/c2ccco2)C(=O)N(Cc2ccco2)C1=O	32µM*
37	C=C1N2CCC(CC2)C1(O)c1ccc(C)cc1 (stereo not given)	4%
38	C=C1C(O)(c2ccccc2)C2CC[N+]1(C)CC2 (stereo not given)	-4%
39	CCCCC/C=C\C/C=C\C/C=C\C/C=C\CCCC(=O)NCc1ccc(O)c(OC)c1	32µM*
40	CCBr	1%
41	CCOC(=O)C1C2c3ccccc3O[C@@]1(C)N=C1SCC(=O)N12 (stereo not given in full)	-11%
42	CC1=C2C[C@H]3[C@@H](CC=C4C[C@@H](O)CC[C@@]43C)[C@@H]2CC[C@]12O[C@@H]1C[C@H](C)CN[C@H]1C2C (stereo not given in full)	0%
43	CC(Cc1ccccc1)NC(=O)/C=C/c1ccc(Cl)cc1 (stereo not given)	-17%
44	O=C(/C=C\c1ccc(Cl)cc1)N[C@@]12CCC(=O)[C@@H]3Oc4c(O)ccc5c4[C@@]31CCN(CC1CC1)[C@@H]2C5	4%
45	Cc1cccc(N2C(=O)NC(=O)/C(=C\c3cnn(-c4ccccc4)c3)C2=O)c1	10µM*
46	N#Cc1c(/N=C/c2c(O)n(Cc3ccco3)c(=O)[nH]c2=O)sc2c1CCCC2	-23%
47	N#Cc1ccccc1Cn1cc(C(=O)c2cccs2)c2ccccc21	?
48	O=c1c2ccccc2nc(-c2ccco2)n1-c1nccs1	-16%
49	CC(C)(O)[C@@H]1[C@H]2OC(=O)[C@@H]1[C@]1(O)C[C@H]3O[C@]34C(=O)O[C@H]2[C@@]14C (tested in a mixture with another compound)	-8%
50	COc1ccc(NC(c2ccccc2F)P(=O)(Oc2ccccc2)Oc2ccccc2)cc1 (stereo not given)	-9%
51	Cc1ccccc1NC(=S)NC(NC(=O)CF)C(Cl)(Cl)Cl (stereo not given)	-2%
52	O=Cc1ccco1	-3%
53	c1ccc(CN2CCN(Cc3ccc4c(c3)OCCO4)CC2)cc1	-1%
54	O=C(CN1CCOCC1)Nc1ccc(Br)cc1C(=O)c1ccccc1	-10%
55	CCN(CC)CCO	-12%
56	OC(c1ccncc1)(c1ccc(F)cc1)c1ccc(F)cc1	-3%
57	COc1ccc(-c2nc3ccccc3c(=O)n2-c2nccs2)cc1	-7%
58	COc1ccc(Cn2c(N)c(C(=O)NCc3ccco3)c3nc4ccccc4nc32)cc1OC	?
59	C[C@H](Cc1ccc2c(c1)OC(C(=O)O)(C(=O)O)O2)NC[C@H](O)c1cccc(Cl)c1	-20%&-10%
60	CCN(CC)CCN=Cc1c(O)n(CCc2ccccc2)c(=O)[nH]c1=O	-5%

# (cont.)
cpd	molecule	HPGD inh
61	CC(=NC1CCN(Cc2ccccc2)CC1)c1c(O)n(C)c(=O)n(C)c1=O	-1%
62	CN1CCN(c2cc(N3CCCC3)c([N+](=O)[O-])cc2F)CC1	-9%
63	CC(=O)O[C@H]1C[C@@H](O[C@@H]2[C@H](C)O[C@H](O[C@@H]3[C@H](C)O[C@H](O[C@@H]4CC[C@@]5(C)[C@@H](CC[C@]6(C)[C@]5(C)C[C@H](O)[C@]5(C)[C@@H](C7=CC(=O)OC7)CC[C@@]56O)C4)C[C@@H]3O)C[C@@H]2O)O[C@@H](C)[C@H]1O[C@H]1O[C@@H](CO)[C@@H](O)[C@@H](O)[C@@H]1O	-12%
64	COc1cc2c(cc1O)CCNC2C (stereo not given)	-6%
65	CC(C)(C#N)O[C@H]1OC(CO)C(O)C(O)C1O (stereo not given in full)	-3%
66	CC(=O)c1ccc(OC(NC(=O)c2ccco2)C(Cl)(Cl)Cl)cc1 (stereo not given)	25µM*
67	CN1CCN(c2cc(N3CCCCCC3)c(F)cc2[N+](=O)[O-])CC1	-14%
68	CN1CC=C(c2c[nH]c3ccccc23)CC1	-6%
69	COc1ccc2c(c[n+](C)c3c4cc5c(cc4ccc23)OCO5)c1OC	?
70	O=C(O)CSCC(=O)O	-8%
71	CC(C)NS(=O)(=O)c1ccc(OCC(=O)N2CCN(Cc3ccc4c(c3)OCO4)CC2)c(Cl)c1	-10%
72	N=C1c2ccccc2CN1NC(=O)c1ccc(F)cc1	-17%
73	CN(C)c1ccc(N)cc1	-7%
74	CN1CCN(Cc2nc3ccccc3n2C)CC1	-6%
75	Cc1ccc2c(c1)CCCN2N=O	-4%
76	Cc1ccccc1N1C(=O)CC(=O)N(c2ccccc2C)C1=O	4%
77	O=C(NC(Oc1ccccc1)C(Cl)(Cl)Cl)c1ccccc1 (stereo not given)	-9%
78	CC1CC[C@@]2(OC1)O[C@@H]1[C@@H](O)[C@H]3C4CC[C@H]5C[C@@H](O[C@@H]6O[C@H](CO)[C@H](O[C@@H]7O[C@H](CO)[C@@H](O)[C@H](O[C@@H]8OC[C@@H](O)[C@H](O)[C@H]8O)[C@H]7O[C@@H]7O[C@H](CO)[C@@H](O)[C@H](O[C@@H]8O[C@H](CO)[C@@H](O)[C@H](O)[C@H]8O)[C@H]7O)[C@H](O)[C@H]6O)[C@H](O)C[C@]5(C)C4CC[C@]3(C)[C@H]1[C@@H]2C (stereo not given in full)	3%
79	Cc1c(N=Nc2c(O)n(Cc3ccccc3)c(=O)[nH]c2=O)c(=O)n(-c2ccccc2)n1C	?
80	COc1ncccc1C(=O)NCC(CC(=O)O)c1ccccc1 (stereo not given)	-4%

# 4 entries from above in a different format.
38. C=C1C(O)(c2ccccc2)C2CC[N+]1(C)CC2 (stereo not given)
  HPGD inh: -4%
39. CCCCC/C=C\C/C=C\C/C=C\C/C=C\CCCC(=O)NCc1ccc(O)c(OC)c1
  HPGD inh: 32µM*
40. CCBr
  HPGD inh: 1%
41. CCOC(=O)C1C2c3ccccc3O[C@@]1(C)N=C1SCC(=O)N12 (stereo not given in full)
  HPGD inh: -11%

# Continuation:
cpd	molecule	HPGD inh
81	Cc1cc(-c2n[nH]c(=S)n2-c2ccc(C)c(C)c2)no1	5.6µM*
82	Oc1cccc2cccnc12	-7%&-10%&1%&0%
83	CN(C)P1(N(C)C)=NC(C(F)(F)F)=NC(C(F)(F)F)=N1	-10%
84	C[C@@H]1O[C@H](C[N+](C)(C)C)C[C@H]1O	-6%
85	COc1ccc(-n2c(O)c(C(C)=NCCN3CCNCC3)c(=O)[nH]c2=O)cc1	-9%
86	N[C@@H](Cc1c[nH]c2ccccc12)c1nnc(SCc2ccc(F)cc2)o1	-10%
87	CNC(C)Cc1ccccc1OC (stereo not given)	-9%
88	C[N+]1([O-])[C@H]2CC[C@H]1CC(OC(=O)[C@@H](CO)c1ccccc1)C2 (stereo not given in full)	-9%
89	COc1ccc(S(=O)(=O)NCc2ccc(C(=O)N3CCC4(CC3)OCCO4)cc2)cc1	-19%
90	CCN(CC)c1ccc(N=Cc2c(O)n(-c3ccc(OC)cc3)c(=O)[nH]c2=O)cc1	-4%
91	N=c1n(CCO)c2ccccc2n1Cc1ccccc1	0%
92	Clc1ccc2c(c1)C(c1ccccc1Cl)=NCc1nnc(N3CCN(CCSc4ccccc4)CC3)n1-2	-9%
93	O=[N+]([O-])/C=C/c1ccccc1	-2%
94	O=C(CN1CC=C(c2ccccc2)CC1)Nc1cc(Cl)ccc1Cl	-13%
95	Nc1ccccc1	-9%
96	O=C(O)c1cc(Cl)ccc1Cl	-7%
97	COc1cccc2c1cc([N+](=O)[O-])c1c(C(=O)O)cc3c(c12)OCO3	-5%&-23%
98	COC(=O)[C@]1(C)CC[C@@]2(C)CC[C@@]3(C)C4=CCc5c(cc(O)c(O)c5C)[C@]4(C)CC[C@@]3(C)C2C1 (stereo not given in full)	28µM*
99	Cc1ccc(/C=C2/C(=O)NC(=O)N(C)C2=O)cc1	-29%
100	Cc1ccc2cccc(OC(=O)N(C)c3ccccc3)c2n1	-1%

# 3 structures already listed, arranged by molar mass, largest number first:
cpd	molecule	HPGD inh
83	CN(C)P1(N(C)C)=NC(C(F)(F)F)=NC(C(F)(F)F)=N1	-10%
91	N=c1n(CCO)c2ccccc2n1Cc1ccccc1	0%
84	C[C@@H]1O[C@H](C[N+](C)(C)C)C[C@H]1O	-6%

# The list goes on.
cpd	molecule	HPGD inh
101	CCC(C)(C)c1ccc(O)cc1	-7%
102	Cc1oc(-c2cccs2)nc1CSCC(=O)N1CCC2(CC1)OCCO2	?
103	Nc1ncc([N+](=O)[O-])s1	?
104	O=P(OCC(F)(F)C(F)F)(N1CCCCC1)N1CCCCC1	-3%
105	O=S1(=O)CC2(N3CCOCC3)CCCCC21 (stereo not given)	-9%
106	CC(=O)O[C@H]1CC[C@H]2[C@@H]3CCC4=C[C@@H](C5SCCS5)[C@H](OC(C)=O)C[C@]4(C)[C@H]3CC[C@@]12C	-17%
107	CCOC(=O)C1CCN(/C=C2/C(=O)NC(=O)N(c3ccc(OCC)cc3)C2=O)CC1	-5%
108	Cc1ccc(C2NC(=S)NC(c3ccc(C)cc3)C23C(=O)NC(=O)NC3=O)cc1 (stereo not given)	-2%
109	CCCOC(=O)c1c(N)n(Cc2cccs2)c2nc3ccccc3nc12	?
110	Cc1cc(OC(=O)N2CCCCC2)c(C(C)C)cc1[N+](C)(C)C	-11%
111	Clc1ccc([C@@H](OCCN2CCCCC2)c2ccccc2)cc1	-4%
112	NS(=O)(=O)C[C-]1C=C[CH]([Sb-]([Cl])([Cl])([Cl])([Cl])[Cl])C=C1.c1ccncc1 (stereo not given)	-10%
113	C#CCNc1ccncc1S(=O)(=O)NC(=O)NC(C)C	-6%
114	Nc1ccc(N2CCN(Cc3ccccc3Cl)CC2)c(Cl)c1	-25%
115	CCC(Cl)[N+](=O)[O-] (stereo not given)	1%
116	CCSCC[C@H](N)C(=O)O	-14%
117	O=C(c1cccn2c(=O)c3ccc(Cl)cc3nc12)N1CCC2(CC1)OCCO2	?
118	CCN(CCCNS(=O)(=O)c1ccc2c(c1)oc(=O)n2C)c1cccc(C)c1	?
119	Cc1ccc(S(=O)(=O)N[C@@H](CCCCN)C(=O)CCl)cc1	?
120	Nc1ncnc2c1ncn2[C@@H]1O[C@H](COP(=O)(O)CP(=O)(O)OP(=O)(O)O)[C@H](O)[C@H]1O	-6%
121	COc1ccc(C2SCC(=O)Nc3c2c(=O)[nH]n3C2CCCCC2)cc1 (stereo not given)	-4%
122	CN(C)CCc1nn[nH]n1	-2%
123	COc1cc(CN2CC3CC(C2)c2cccc(=O)n2C3)cc(OC)c1OC (stereo not given)	-8%
124	CCC1(C)CC(=O)NC(=O)C1	-1%
